High-throughput results deposited in PubChem by Broad Institute.
A1 inh = A1 inhibition | caspase activation, % (test concentration not listed) | 21,000 compounds, 0.51% hits | MEF A1-2A-BIM cells, caspase-Glo luminescence, 3 h; percent of clofoctol signal, DMSO as zero;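 active means most replicate scores above 10, or exactly half above 10 with mean activity above 10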;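 further: effector caspase 3 and 7 activity cleaving a DEVD luciferin substrate; 50 nL library stock added to about 30 µL; numbers are from one replicate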
BJeLR viability = lowers viability of BJeLR cells; BJeLR fibroblasts viability, CellTiterGlo ATP luminescence, 48 h; HRASV12, hTERT and SV40 LT/ST transformed; viability loss activity score, % (concentration not given with the values); 30,000 compounds, 0.64% hits; in the data active means viability loss activity score above about 50%; about a fifth of its hits are not listed in these tables;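 further: higher score means fewer live cells and less ATP luminescence; stock transfer was 50 or 100 nL into about 30 µL; 0% = vehicle wells and 100% = a reference killing control; one replicate is shown; the record names a cut of 85%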
Numbers without * were called inactive; · = no result given. Some of the compounds tested; the hit share may differ from the screen's.

The opening two records (preview)
Results follow in this order: A1 inh, BJeLR viability
1: C[C@@H]1CN([C@H](C)CO)C(=O)c2cc(NS(C)(=O)=O)ccc2O[C@@H]1CN(C)S(=O)(=O)c1cccs1
  0.6, 1.2
2: CCOC(=O)COc1ccccc1/C=C1\N=C(SCC)SC1=O
  ·, 2.0

Results, from the first entry:
Results follow in this order: A1 inh, BJeLR viability
1: C[C@@H]1CN([C@H](C)CO)C(=O)c2cc(NS(C)(=O)=O)ccc2O[C@@H]1CN(C)S(=O)(=O)c1cccs1
  0.6, 1.2
2: CCOC(=O)COc1ccccc1/C=C1\N=C(SCC)SC1=O
  ·, 2.0
3: COc1ccc(-c2cc(C(F)(F)F)nc(NCC3CCCO3)n2)cc1 (stereo not drawn)
  ·, -0.2
4: Cc1nc(-c2ccccn2)nc(SCC(=O)c2ccc(F)cc2)c1Cl
  ·, -3.4
5: COc1ccc(-c2[nH]ncc2CN2CCC(c3ccccc3OC)CC2)cc1
  0.6, 5.9
6: CCOC(=O)c1sc2nc(SCc3cccc(Cl)c3)n(Cc3cccs3)c(=O)c2c1C
  -0.1, 7.6
7: CC(NC(=O)c1cnn2c(C(F)(F)F)cc(-c3cccs3)nc12)c1ccccc1 (stereo not drawn)
  -1.3, -7.8
8: Cn1ncc(C(=O)Sc2ccc(Cl)cc2)c1-n1cccc1
  ·, -0.8
9: C[C@H]1CN([C@@H](C)CO)C(=O)c2cccc(N(C)C)c2O[C@H]1CN(C)Cc1ccncc1
  ·, 10.5
10: Cc1noc(C)c1S(=O)(=O)Nc1ccc2c(c1)C(=O)N([C@H](C)CO)C[C@@H](C)[C@@H](CN(C)Cc1ccc(C(=O)Nc3ccccc3N)cc1)O2
  ·, 8.4
11: CCOC(=O)Cn1c(-c2cccnc2)nc(-c2ccccc2)c1-c1ccccc1
  1.0, 0.2
12: COc1ccc(CCC(=O)O)c(O)c1
  -0.1, -5.3
13: Nc1cccc(-c2ccc(CO)o2)c1
  0.4, 3.9
14: Cc1ccc(S(=O)(=O)N(C)C[C@@H]2Oc3ccc(NC(=O)NC4CCCCC4)cc3C(=O)N([C@H](C)CO)C[C@@H]2C)cc1
  -0.5, 7.6
15: COc1ccc(C2C3(C#N)C(N)=NC(OC)(OC)C23C#N)cc1 (stereo not drawn)
  ·, -4.9
16: O=C(NCc1ccccc1)NC1CCCCC1
  -0.6, -7.7
17: Clc1ccc2oc(-c3cccnc3)nc2c1
  -5.3, 1.5
18: C[C@H]1CN([C@@H](C)CO)C(=O)c2cccc(NS(=O)(=O)c3ccc(F)cc3)c2O[C@@H]1CN(C)Cc1ccc(C(=O)O)cc1
  ·, 0.8
19: O=C(NCC1CCCO1)c1cc2c(s1)-c1ccccc1OC2 (stereo not drawn)
  ·, -3.2
20: O=C(Nc1ccc(Cl)cn1)c1cccc(S(=O)(=O)N2CCCCCC2)c1
  -0.2, 0.4
21: O=C(c1ccccc1)C1CCN(C(=O)c2ccco2)CC1
  -0.5, -1.0
22: Fc1ccc2nc(Nc3nnc(-c4ccco4)o3)sc2c1
  ·, 1.6
23: CC1(C)CN(C(=S)Nc2cccc(Cl)c2)C1=O
  1.2, -4.2
24: Cc1ccc2oc(=O)c3cnn(CC(=O)N4CCCCC4)c3c2c1
  ·, 0.3
25: Cc1noc(C)c1NC(=O)N(C)C[C@@H]1Oc2ccc(N(C)C)cc2C(=O)N([C@@H](C)CO)C[C@H]1C
  -0.1, 0.4
26: C[C@@H]1CN([C@@H](C)CO)C(=O)c2cc(NS(=O)(=O)c3ccccc3)ccc2O[C@H]1CN(C)CC1CCCCC1
  -0.1, -1.4
27: COc1cc(C2NCCS2)cc(OC)c1OC (stereo not drawn)
  -0.8, 2.1
28: C[C@H]1CN([C@@H](C)CO)C(=O)c2cc(NC(=O)CCCN(C)C)ccc2O[C@@H]1CN(C)C(=O)Nc1ccccc1
  -0.7, 1.4
29: C[C@H]1CN([C@@H](C)CO)C(=O)c2cc(NC(=O)CCCN(C)C)ccc2O[C@H]1CN(C)Cc1ccc(C(=O)O)cc1
  0.1, -2.4
30: C[C@H]1CN([C@@H](C)CO)C(=O)c2cc(N(C)C)ccc2O[C@H]1CN(C)Cc1ccc(Oc2ccccc2)cc1
  0.8, -7.8

Exported field by field: entries from further up
14. Cc1ccc(S(=O)(=O)N(C)C[C@@H]2Oc3ccc(NC(=O)NC4CCCCC4)cc3C(=O)N([C@H](C)CO)C[C@@H]2C)cc1
  A1 inh = -0.5
  BJeLR viability = 7.6
27. COc1cc(C2NCCS2)cc(OC)c1OC (stereo not drawn)
  A1 inh = -0.8
  BJeLR viability = 2.1
17. Clc1ccc2oc(-c3cccnc3)nc2c1
  A1 inh = -5.3
  BJeLR viability = 1.5
18. C[C@H]1CN([C@@H](C)CO)C(=O)c2cccc(NS(=O)(=O)c3ccc(F)cc3)c2O[C@@H]1CN(C)Cc1ccc(C(=O)O)cc1
  A1 inh = ·
  BJeLR viability = 0.8

Continuation:
Results follow in this order: A1 inh, BJeLR viability
31: Cc1noc(C)c1S(=O)(=O)Nc1ccc2c(c1)C(=O)N([C@@H](C)CO)C[C@H](C)[C@H](CN(C)C)O2
  0.3, -4.6
32: CCC(C)NC(=O)c1cc(-c2cccc(OC)c2)no1 (stereo not drawn)
  -3.0, -0.8
33: Cc1noc(C)c1NC(=O)N(C)C[C@@H]1Oc2ccc(NC(=O)Nc3cccc4ccccc34)cc2C(=O)N([C@@H](C)CO)C[C@@H]1C
  -0.5, 0.5
34: C[C@H]1CN([C@@H](C)CO)C(=O)c2cc(NC(=O)Nc3cccc4ccccc34)ccc2O[C@@H]1CN(C)CC1CCCCC1
  0.2, -2.9
35: c1ccc(N2CCN(c3c4c(nc5ncnn35)CCC4)CC2)cc1
  0.2, 6.6
36: OC(c1nc2ccc(Cl)cc2[nH]1)C(O)c1nc2ccc(Cl)cc2[nH]1 (stereo not drawn)
  -0.6, 0.9
37: CC(Oc1ccc(Br)cc1)C(=O)NN (stereo not drawn)
  0.7, 1.4
38: Cc1ccc(S(=O)(=O)N(C)C[C@@H]2Oc3c(NC(=O)c4cc(C)nn4C)cccc3C(=O)N([C@@H](C)CO)C[C@@H]2C)cc1
  ·, -7.3
39: C[C@H]1CN([C@@H](C)CO)C(=O)c2cc(NC(=O)Cc3cn(C)c4ccccc34)ccc2O[C@@H]1CN(C)C(=O)Nc1cccc2ccccc12
  0.1, -4.7
40: CNC[C@H]1Oc2ccc(NC(=O)Nc3c(C)noc3C)cc2C(=O)N([C@@H](C)CO)C[C@@H]1C
  0.0, 1.3
41: Nc1cc(N)nc(SCC(=O)N2c3ccccc3Sc3ccccc32)n1
  0.9, -1.6
42: Cc1ccc2c(Sc3ccc(Cl)cc3)c(C(=O)NC(C)c3ccc4c(c3)OCCO4)[nH]c2c1 (stereo not drawn)
  -1.4, -0.2
43: COc1ccc2c(c1)[C@@]1(C)CCC(=O)C[C@H]1CC2
  -0.8, -2.4
44: Cc1noc(C)c1NC(=O)N(C)C[C@H]1Oc2ccc(NC(=O)C3CC3)cc2C(=O)N([C@@H](C)CO)C[C@@H]1C
  -0.3, 1.7
45: CC(C)CCNCc1c(C(=O)O)n(Cc2ccccc2)c2ccccc12
  1.0, -1.4
46: O=C(O)CCn1c2ccccc2c2cn[nH]c(=O)c21
  0.9, 0.5
47: C[C@H]1CN([C@@H](C)CO)C(=O)c2cc(NS(=O)(=O)c3cn(C)cn3)ccc2O[C@H]1CN(C)S(C)(=O)=O
  -0.1, 0.4
48: C[C@@H]1CN([C@H](C)CO)C(=O)c2cc(NC(=O)Cc3cn(C)c4ccccc34)ccc2O[C@@H]1CN(C)C(=O)Nc1ccc(C(F)(F)F)cc1
  -0.7, 7.0
49: CC(C)NC(=O)Nc1ccc2c(c1)C(=O)N([C@H](C)CO)C[C@@H](C)[C@@H](CN(C)C(=O)Nc1ccc3c(c1)OCO3)O2
  0.4, -6.1
50: C[C@@H]1CN([C@H](C)CO)C(=O)c2cc(NC(=O)c3ccncc3)ccc2O[C@@H]1CN(C)C(=O)Nc1ccc2c(c1)OCO2
  0.0, 0.8
51: CCOC(=O)c1cnn(C(=O)COc2ccc(C(C)(C)C)cc2C(C)(C)C)c1N
  -0.6, 0.3
52: OC(C#CCN1CCOCC1)c1cccs1 (stereo not drawn)
  0.2, -7.6
53: COc1ccc(CN(C)C[C@@H]2Oc3ccc(NC(=O)NC4CCCCC4)cc3C(=O)N([C@@H](C)CO)C[C@H]2C)cc1
  -0.1, -1.1
54: CC(=O)N1CC(C)Sc2cc(S(=O)(=O)Nc3cccc(Cl)c3)ccc21 (stereo not drawn)
  0.2, -4.0
55: C=C1C(=O)O[C@@H]2/C=C(/CO[C@@H]3O[C@H](CO)[C@@H](O)[C@H](O)[C@H]3O)CC/C=C(/C=O)C[C@H](O)[C@@H]12
  -0.2, 1.3
56: Cc1noc(C)c1S(=O)(=O)Nc1cccc2c1O[C@@H](CN(C)Cc1ccc(C(F)(F)F)cc1)[C@@H](C)CN([C@@H](C)CO)C2=O
  ·, -5.9
57: C[C@H]1CN([C@@H](C)CO)C(=O)c2cccc(NC(=O)c3ccc(-c4nccs4)cc3)c2O[C@@H]1CN(C)S(=O)(=O)c1cn(C)cn1
  ·, 1.9
58: CNC[C@@H]1Oc2ccc(N(C)C)cc2C(=O)N([C@@H](C)CO)C[C@H]1C
  0.1, 1.4
59: CNC[C@H]1Oc2c(NC(=O)NC(C)C)cccc2C(=O)N([C@H](C)CO)C[C@H]1C
  ·, 6.3
60: COc1ccc(S(=O)(=O)N(C)C[C@@H]2Oc3ccc(NC(=O)C4CCCCC4)cc3C(=O)N([C@@H](C)CO)C[C@@H]2C)cc1
  0.7, -3.7
61: COc1ccc(NC(=O)N(C)C[C@H]2Oc3ccc(NC(=O)c4ccncc4)cc3C(=O)N([C@H](C)CO)C[C@H]2C)cc1
  0.4, -4.8
62: COc1ccc(C(=O)Nc2ccc(S(=O)(=O)Nc3nccnc3OC)cc2)cc1
  -0.5, -10.4
63: COc1ccc(CN(C)C[C@H]2Oc3ccc(NC(=O)CCC(F)(F)F)cc3C(=O)N([C@H](C)CO)C[C@@H]2C)cc1
  0.2, 1.5
64: O=C(NCc1ccccc1Cl)C1CCC(=O)N1Cc1ccc(F)cc1 (stereo not drawn)
  ·, 5.5
65: C[C@H]1CN([C@@H](C)CO)C(=O)c2cc(NS(=O)(=O)c3ccc(Cl)cc3)ccc2O[C@@H]1CN(C)Cc1ccc(Oc2ccccc2)cc1
  -0.7, -0.5
66: CC(C)OC(=O)Cc1csc(-c2ccc(Oc3ccc(C(F)(F)F)cn3)cc2)n1
  0.2, -2.2
67: C[C@@H]1CN([C@@H](C)CO)C(=O)c2cc(NC(=O)C3CCCCC3)ccc2O[C@@H]1CN(C)C(=O)Nc1ccccc1
  0.3, -2.1
68: Cc1cc(C)n2nc(CNS(=O)(=O)c3cccc4nsnc34)nc2n1
  0.2, -0.9
69: CCOC(=O)c1c(C(C)(C)C)oc2ccc(OCC(=O)OC)cc12
  -1.3, -2.7
70: CN(C(=O)Cn1c(=O)n(CC(=O)NCCc2ccccc2)c(=O)c2sccc21)C1CCCCC1
  ·, 3.5
71: C[C@H](CO)N1C[C@H](C)[C@H](CN(C)C(=O)Nc2ccc(F)cc2)Oc2c(NS(=O)(=O)c3cn(C)cn3)cccc2C1=O
  ·, 0.7
72: C[C@@H]1CN([C@H](C)CO)C(=O)c2cccc(NC(=O)Nc3ccc4c(c3)OCO4)c2O[C@H]1CN(C)S(=O)(=O)c1ccccc1
  ·, -2.9
73: Cc1cc(C)c2sc(N3CCCC3)nc2c1
  ·, -2.5
74: Cc1cccc(C)c1Nc1c(-c2ccsc2)nc2sccn12
  ·, 4.8
75: C[C@@H]1CN([C@H](C)CO)C(=O)c2cccc(NC(=O)Nc3ccc(F)cc3)c2O[C@@H]1CN(C)S(=O)(=O)c1ccc(F)cc1
  ·, -3.4
76: COc1ccccc1NC(=S)NC1CC2CCC1C2 (stereo not drawn)
  ·, -8.2
77: C[C@@H]1CN([C@@H](C)CO)C(=O)c2cccc(NC(=O)C3CCCCC3)c2O[C@@H]1CN(C)CC1CCCCC1
  ·, -1.5
78: CC(C)NC(=O)N(C)C[C@@H]1Oc2c(NC(=O)c3ccncc3)cccc2C(=O)N([C@H](C)CO)C[C@@H]1C
  ·, 2.4
79: CNC[C@@H]1Oc2ccc(NC(=O)NC(C)C)cc2C(=O)N([C@@H](C)CO)C[C@@H]1C
  -0.6, -0.9
80: O=C(NCc1ccccc1)N1c2ccccc2Sc2ccccc21
  -0.2, -4.4
81: CC(C)(C)c1cc(C(=O)OCCN2CCCCC2)cc(C(C)(C)C)c1
  4.9, 3.4
82: O=C1CCc2cc(C(=O)CSc3ccc(Cl)cc3Cl)ccc2N1
  -0.1, 5.2
83: Cc1ccc(C2=CC(c3ccccc3)SC(N)=N2)cc1 (stereo not drawn)
  -0.5, -4.8
84: C[C@H](CO)N1C[C@H](C)[C@@H](CN(C)Cc2ccc(Cl)c(Cl)c2)Oc2c(cccc2N(C)C)C1=O
  ·, 0.3
85: OCc1ccc(-c2nn(Cc3ccccc3)c3ccccc23)o1
  0.3, -2.0
86: CC(C)N1CSC(=S)N(Cc2ccccc2)C1
  -0.6, 41.2
87: CC1CN(C(=O)Nc2ccc3snnc3c2)c2ccccc21 (stereo not drawn)
  -2.4, 1.0
88: CC1(C)C(=O)C=C[C@@]2(C)C1C=C[C@]1(C)C2CC[C@@]2(C)[C@H](c3ccoc3)OC(=O)C3OC321 (stereo partly drawn)
  1.2, 12.3
89: c1ccc(CSC23CC4CC(CC(C4)C2)C3)cc1
  0.7, -4.7
90: Cc1cc(/C=C2/C(=N)N3C=CSC3=NC2=O)c(C)n1-c1ccccc1
  -7.3, 8.9
